Calb biofilm kill = mixture kills Candida albicans biofilm cells; actives 0.02% (n = 120,000); AID 1242; C. albicans biofilm persisters + clotrimazole, fluorescence viability; primary screen in compound mixtures of four per well; inhibition, % at 7.6 µM;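 active = inhibition above 30.3% in the primary screen of four-compound pools, then above 30% when the compound was retested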;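 also: compounds exposed to preformed 24 h biofilms for 48 h; the number belongs to the whole pool; some results filed as inactive read as strong as hits; inactives centre near 12; 0% = biofilm with clotrimazole alone and 100% = kill control; retested singly at about 60 µM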
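Test system: C. albicans CAF4-2 wild-type biofilms; buffer or medium: RPMI/MOPS medium, pH 7.0; schedule: 24 h biofilm formation, then 48 h compound exposure, 37 °C; detection: Alamar Blue fluorescence; measure: percent inhibition of biofilm viability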
An asterisk follows results filed as active. Some of the compounds tested; the hit share may differ from the screen's.

SMILES	Calb biofilm kill
COC(=O)[C@@]1(Cc2ccc(F)cc2)[C@H]2c3cc(C(=O)N(C)C)n(Cc4nc5ccccc5[nH]4)c3C[C@H]2CN1C(=O)c1ccccc1	12.0
COc1ccccc1N(CC(=O)Nc1ccc(C(F)(F)F)cc1)S(C)(=O)=O	15.5
O=C(O)c1ccc(OCCOc2ccccc2)cc1	13.9
O=C(CC1NCCNC1=O)Nc1ccc(Cl)c(Cl)c1 (stereo unspecified)	9.5
CCN(CC)S(=O)(=O)c1cc(C(=O)OCC(=O)Nc2cccc(Br)c2)ccc1F	0.8
O=C(NCCCCCCNC(=O)C1CCCC1)C1CCCC1	10.5
CCC(C)(NC(=O)c1ccc2c(c1)OCO2)C(=O)NC1CCCCC1 (stereo unspecified)	28.1
O=C(c1cc2cc(Br)ccc2s1)N1CCOCC1	21.0
CCn1nc(C)c(NC(=O)Nc2cccc(Cl)c2Cl)c1C	5.2
Cc1ccc(NC(=O)COC(=O)c2cc(Cl)ccc2[N+](=O)[O-])c(C)c1	7.2
Cc1cccc(C(C)C)c1NC(=O)COC(=O)c1cccc(S(=O)(=O)N2CCc3ccccc3C2)c1	11.6
O=C(N/N=C/C=C/c1ccccc1)c1ccccn1	16.0
CC(=O)N1CCc2c(sc(NC(=O)c3ccc([N+](=O)[O-])o3)c2C#N)C1	9.9
O=C(NC(=S)Nc1ccc(CN2CCOCC2)cc1)c1ccc([N+](=O)[O-])cc1Cl	9.5
CC/C(=N\NC(=S)NC(C)C)c1ccc(OC)c(OC)c1	7.0
Cc1c(C(=O)N/N=C/c2ccccc2)[nH]c2c([N+](=O)[O-])cccc12	13.2
CSc1n[nH]c2nc3c(c(=O)n12)C1(CCCC1)Cc1ccccc1-3	13.5
C#CC[N+]1(CC#Cc2ccccc2)CCCCC1	15.0
CCOc1cc(C2NC(=S)NC(C)=C2C(=O)Nc2ccc(OC)cc2)ccc1O (stereo unspecified)	-2.9
COc1cccc(CN2CCCC(C(=O)c3ccc4c(c3)OCO4)C2)c1O (stereo unspecified)	5.5
CN(C)C(=O)C[n+]1ccc(/C=N/O)cc1	-1.8
O=C(Nc1ccc(N2CCOCC2)cc1)C1CCCCN1S(=O)(=O)c1ccccc1 (stereo unspecified)	15.0
CCC1(CC)NC(=O)N(CC(=O)OCC(=O)NC(=O)c2ccc(Cl)cc2)C1=O	13.4
O=C1CCCC2=C1C(c1cccc(O)c1)c1c(ccc3ncccc13)N2 (stereo unspecified)	17.4
O=C(CSc1cn(CC(=O)N2CCCC2)c2ccccc12)NCC1CCCO1 (stereo unspecified)	10.0
O=C(NC(=S)Nc1ccccc1N1CCOCC1)c1sc2ccccc2c1Cl	15.3
CCN(C(=O)c1cc2cccc(OC)c2oc1=O)C1CCCCC1	12.0
COc1ccccc1OCC(=O)NCCSCc1ccc(Cl)cc1	5.3
O=C(Nc1ccc(N2CCN(Cc3ccccc3)CC2)cc1)c1ccccc1[N+](=O)[O-]	7.9
Cc1nc([N+](=O)[O-])cn1CC(O)c1ccc(F)cc1 (stereo unspecified)	10.2
O=C(NCCCc1nc2ccccc2[nH]1)c1ccc(F)cc1	11.1
COc1ccccc1NS(=O)(=O)c1cc(NC(=O)CNC(=O)c2ccc(C)s2)ccc1Cl	6.0
CC(C)Oc1ccc(CCNC(=O)CC2C(=O)NCCN2C)cc1 (stereo unspecified)	14.8
CC(C)CCNC(=O)c1ccc(Cl)c(NC(=O)c2ccccc2F)c1	21.3
COc1cccc(-c2cc(C(=O)Nc3ccn(Cc4ccc(C)cc4)n3)no2)c1	7.3
CC(SCc1ccccc1)C(=O)Nc1ccccc1-c1ccccc1 (stereo unspecified)	13.8
Cc1ccc(NC(=O)c2ccc(=O)[nH]c2)cc1S(=O)(=O)N1CCCCC1	12.8
Cc1ccccc1-c1ccc(=O)n(CC(=O)Nc2ccc(-n3cnnn3)cc2)n1	13.2
Cc1[nH]c2ccccc2c1C(=O)COC(=O)c1ccc2c(=O)n3c(nc2c1)CCC3	14.1
Cc1cc(O)cc(=O)n1C	14.5
CC(=O)CSc1nsc(SCC(C)=O)c1C#N	22.1
CC(O)CNC(=S)Nc1ccccc1 (stereo unspecified)	15.5
Cc1cccc(NS(=O)(=O)c2c(C)noc2C)c1	13.0
Cc1ccc(S(=O)(=O)Nc2c(C)n(C)n(-c3ccccc3)c2=O)cc1C(=O)OCC(=O)N1CCCC(C)C1 (stereo unspecified)	-0.8
Cc1ccc([N+](=O)[O-])cc1NC(=O)c1cccs1	-7.5
NNC(=O)Cn1c2ccccc2c2ccccc21	19.9
COC(=O)N/N=C1/C/C(=N\NC(=O)OC)c2ccccc21	13.6
C=C(C)CNC(=S)Nc1ccc(S(=O)(=O)Nc2cnc3ccccc3n2)cc1	10.8
O=C(/C=C/c1ccccc1)Oc1cccc2cccnc12	-11.5
CCN(CC(=O)NC(C)(C)C)C(=O)CCl	3.0
COc1ccc(/C=N/Nc2nc(-c3ccc(C)cc3)c(NC(C)=O)s2)cc1OC	9.4
O=C(Nc1ccncc1)c1ccc2c(c1)C(=O)N(CC1CCCO1)C2=O (stereo unspecified)	18.5
COc1cc(/C=C/C(=O)OCC(=O)NCc2ccco2)ccc1OCC#N	9.2
OCCC1CN(Cc2nc3c(s2)CCCC3)CCN1Cc1ccccc1 (stereo unspecified)	24.7
CC1(C)Nc2ccccc2C(=O)N1NS(=O)(=O)c1ccccc1	12.8
O=C(Nc1cccc([N+](=O)[O-])c1)c1ccc2ccccc2c1O	9.4
CSc1ccc(CN2CCC(C(=O)NCc3ccc(C)cc3)CC2)cc1	28.7
O=C(O)C1CCCCC1C(=O)Nc1nc(-c2ccc(Cl)s2)cs1 (stereo unspecified)	8.2
CN1/C(=C\C(=O)CSc2cccc[n+]2[O-])C(C)(C)c2ccccc21	5.3
COc1ccc2nc(C(C)O)[nH]c2c1 (stereo unspecified)	12.6

New compounds follow
SMILES	Calb biofilm kill
CCOC(=O)c1ccc(NC(=O)Nc2ncccc2C)cc1	10.3
O=C(NC(=S)Nc1ccccc1)c1ccc(-c2ccccc2)cc1	12.6
O=C(NCC(=O)N(CCN1CCOCC1)C(C(=O)NC1CCCC1)c1cccnc1)c1cccs1 (stereo unspecified)	15.2
CCCCn1c(O)c(N=NC(=O)c2ccccc2NS(=O)(=O)c2cccs2)c2ccccc21	16.1
CCCNC(=O)c1ccc2c(=O)c(O)c(-c3ccc(C)cc3)[nH]c2c1	13.0
COc1ccc(C(=O)c2c(N)sc3c2CCN(C(=O)OC(C)(C)C)C3)cc1	20.6
C#CCOCCOCCOCCNc1nc(N2CCOCC2)nc(N2CCN(C(=O)[C@H](C)n3cc(CCCN=C(N)N)nn3)CC2)n1	9.1
C=CCCN(C(CC(C)C)C(=O)OC)S(=O)(=O)c1cc(Br)ccc1Br (stereo unspecified)	3.3
Nc1ccc(OCC(O)C[n+]2ccc(CCS(=O)(=O)[O-])cc2)cc1 (stereo unspecified)	10.6
CSc1ccccc1NC(=O)CN(C)CC(=O)Nc1ccc(N2CCOCC2)cc1	18.5
Cc1cc(C)c(S(=O)(=O)N2CCN=C2c2ccccc2)c(C)c1	6.4
Cc1cc2ncc(S(C)(=O)=O)c(N)n2n1	11.2
O=C(CC1SC(=Nc2ccccc2)N(Cc2ccccn2)C1=O)Nc1cccc(Cl)c1 (stereo unspecified)	12.6
COc1ccc(CCn2ccc(O)c(Cc3ccc(Cl)cc3)c2=O)cc1OC	-5.1
Clc1ccc2nc(N3CCN(c4ccccc4)CC3)sc2c1	1.1
CC(NC(=O)c1ccccc1NC(=O)c1ccccc1)C(=O)N1CCOCC1 (stereo unspecified)	4.0
OCC1(CCOc2ccccc2)CCN(Cc2nc3ccc(F)cc3[nH]2)CC1	5.0
CC(Nc1[nH]c(=O)n(C)c(=O)c1N=O)c1ccccc1 (stereo unspecified)	23.6
CC(O)CCC(=O)NNC1CC(=O)N(c2ccccc2)C1=O (stereo unspecified)	15.2
CCOC(=O)C1=NNC2(c3ccccc3)C(=O)N(c3cccc(Br)c3)C(=O)C12 (stereo unspecified)	15.4

Single values from the entries so far:
Result of O=C(NC(=S)Nc1ccccc1)c1ccc(-c2ccccc2)cc1 under Calb biofilm kill: 12.6
Result of O=C(NCC(=O)N(CCN1CCOCC1)C(C(=O)NC1CCCC1)c1cccnc1)c1cccs1 (stereo unspecified) under Calb biofilm kill: 15.2

Next section
SMILES	Calb biofilm kill
COc1ccc(-c2cc(C(F)(F)F)nc(S(=O)(=O)CCCC(=O)Nc3cccc(O)c3)n2)cc1OC	13.4
CN(C)CCSc1nc(-c2ccccc2)nc2c1CCCC2	10.3
COc1ccc(C(=O)Nc2nc3ccccc3s2)cc1OC	1.1
Cc1cccc(N2CCN(C(=O)c3csc4ccccc34)CC2C)c1 (stereo unspecified)	13.1
O=C(/C=C/c1ccc(Cl)cc1Cl)NCCSc1ccccc1	-15.2
COCCCNC(=S)Nc1cccc(S(=O)(=O)NC2=NCCC2)c1	5.7
CCCC1=Nc2cc(C(=O)NCc3ccco3)ccc2Sc2ccccc21	10.5
N#C/C(=C\c1cccc([N+](=O)[O-])c1)C(=O)NCc1ccc(Cl)cc1	-2.5
COc1ccc2cc(C)c3nnc(SCc4cccnc4)n3c2c1	2.7
CN1CCN(C(=O)c2cc3sc4ccccc4c3s2)CC1	19.1
O=c1c2sccc2n(Cc2ccc(F)cc2)c(=O)n1-c1ccc(F)cc1	4.6
O=S(=O)(Nc1nc(SCc2ccc(Cl)cc2)n[nH]1)c1ccccc1	13.7
O=C(Nc1ccc(N2C(=O)C3C4C=CC(C4)C3C2=O)cc1Cl)c1cccs1 (stereo unspecified)	19.2
C=CCSC1=C(C#N)C(c2ccccc2Cl)C(C(=O)c2cccs2)C(O)(C(F)(F)F)N1 (stereo unspecified)	-7.1
COc1cc(/C=N/Nc2nnc3c(n2)[nH]c2ccccc23)ccc1O	10.6
CC(=O)Nc1ccc(S(=O)(=O)Nc2cccc(-c3ccc4nncn4n3)c2)cc1	16.5
Cc1ccc(CN2CCc3c(OCC(=O)Nc4cc(C)ccc4C)cccc3C2=O)cc1	4.1
O=C(c1ccco1)N1CCN(c2c([N+](=O)[O-])nn(-c3cccc(Cl)c3)[n+]2[O-])CC1	16.1
OC(CNCc1ccccn1)c1ccccc1 (stereo unspecified)	21.6
Cn1cc(/C=C/C(=O)c2ccccc2)c2ccccc21	21.4

Entries from the list above containing a CF3 group, in the order listed:
SMILES	Calb biofilm kill
COc1ccccc1N(CC(=O)Nc1ccc(C(F)(F)F)cc1)S(C)(=O)=O	15.5
COc1ccc(-c2cc(C(F)(F)F)nc(S(=O)(=O)CCCC(=O)Nc3cccc(O)c3)n2)cc1OC	13.4
C=CCSC1=C(C#N)C(c2ccccc2Cl)C(C(=O)c2cccs2)C(O)(C(F)(F)F)N1 (stereo unspecified)	-7.1

Going on with the list.
SMILES	Calb biofilm kill
CN1CCN(CC(=O)NN(Cc2ccccc2)c2ccccc2)CC1	24.3
COc1cc(/C=C\C(=O)NCc2ccc3c(c2)cc(C)n3C)cc(OC)c1OC	17.0
Cc1cccc(CN2CCSc3sccc3C2=O)c1	9.8
CCCCOc1cccc(OCC(=O)Nc2nc3ccccc3[nH]2)c1	5.2
C(=C\c1ccc2ccccc2n1)/c1ccccc1	14.5
S=c1nc(-c2ccccc2)[nH]c2ccc(Br)cc12	23.4
Cc1ccccc1N=C1NC(=O)/C(=C/c2cccn2C)S1	15.2
Nc1ncc2c(n1)-c1cc(Cl)ccc1SC2	13.3
Cc1nnc(SCC(=O)Nc2ccc3c(c2)OCO3)n(N)c1=O	-2.0
C=C(C)C(=O)Nc1cccc(C2=NOC3(C2)C[C@H](C(N)=O)N(C(=O)COc2ccc(Cl)cc2)C3)c1 (stereo partly specified)	16.5
Cc1c(=O)n(OCc2ccc(Cl)cc2)c2ccccc2[n+]1[O-]	-8.9
Cc1sccc1/C=N/NC(=O)c1cccc2ccccc12	19.5
Brc1ccc(OCc2nnc(SCC3CCCCC3)o2)cc1	22.2
O=C(CCl)NCCCCCCCCCNC(=O)CCl	12.0
COc1ccc(-n2ncc3c(=O)n(CC(=O)N4c5ccccc5CC4C)cnc32)cc1 (stereo unspecified)	12.8
CCN1C(=O)c2cccc3c(S(=O)(=O)N(C(=O)c4ccncc4)c4ccc(OC)cc4)ccc1c23	1.1
Cc1ccc(C)c(NC(=O)COC(=O)c2ccc3c(c2)OCO3)c1	9.5
O=C(/C=C/c1ccc(Cl)c([N+](=O)[O-])c1)Nc1ccc(NC(=O)c2ccco2)cc1	12.1
Fc1ccc(-c2cc(-c3cccs3)cc(-c3ccccc3)n2)cc1	2.7
O=C(O)/C=C/c1ccc2ccccc2n1	11.4
N#Cc1ccsc1NC(=O)c1cccc([N+](=O)[O-])c1	36.6
Cc1ccc(NC(=S)N(CCCN2CCOCC2)Cc2cccnc2)cc1C	-2.2
O=C(Nc1nc(-c2cccs2)cs1)C1=COCCO1	15.0
O=C1NC2(CCCCC2)C(=O)N1CCN1C(=O)c2ccccc2C1=O	15.3
COc1ccc(S(=O)(=O)N2CCc3ccccc32)cc1C(=O)NCCc1ccccn1	0.5
CC(=O)Nc1ccc(NC2=C(Cl)C(=O)c3ccccc3C2=O)cc1	-15.4
CCn1c(CCc2nc3ccccc3[nH]2)n[nH]c1=S	13.6
O=C(O)Cc1csc(NC(=O)CSc2cccc(C(=O)O)n2)n1	12.2
Cc1cc(C(=O)CSc2n[nH]c(N)n2)c(C)n1-c1ccc(F)cc1	5.0
Cc1cccc(N2CC(O)(c3cccs3)[N+]3=C2CCCC3)c1C (stereo unspecified)	19.7
COC(=O)Nc1ccc(S(=O)(=O)N2CCCC(C(=O)NC3CCCCC3)C2)cc1 (stereo unspecified)	10.2

Screens: PubChem BioAssay, PCMD
